Screening results as filed in PubChem BioAssay.
MT1-MMP act inh: blocks activation of human MT1-MMP. P50281. HT1080 RFP-PRO-GFP cells, GFP/RFP ratio fluorescence, overnight; percent of plate control window, DMSO zero. GFP/RFP ratio change, % at 20 µM. 360,000 compounds, 0.061% hits;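 active means GFP/RFP ratio change of at least 30% with cell ATP level not reduced by more than half and red fluorescence within 50% of control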; further: strong numbers were not always called active
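Assay system: HT1080 RFP-PRO-GFP cells. Benchmarks: DMSO vehicle wells and RFP-L50D-GFP reporter cell wells. Times: overnight cell settling, then overnight compound exposure, 37 °C, 5% CO2. Compound: 20 µM single dose, 1% DMSO. Read-out basis: GFP/RFP fluorescence ratio.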
HIV Env fusion: HIV envelope-mediated fusion inhibition; HeLa-JRFL Env/CEM21 cell fusion, luciferase; inhibition, % at 12.3 µM; 360,000 compounds, 1.1% hits;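 active means mean replicate inhibition score of at least 50 and every replicate individually at or above 50; inconclusive means only one of the two criteria met; inactive means mean below 50 and not all replicates reaching 50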;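 further: 0% = plate neutral controls and 100% = maraviroc near 300 nM; one replicate is shown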
UUG fidelity: modulators of start codon recognition fidelity in yeast | 350,000 compounds, 0.13% hits | S. cerevisiae UUG-firefly luciferase reporter, luminescence/redox ratio | activity score, % at 18.7 µM;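 active means replicate mean at a twofold rise or more, about +100% in these data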;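 further: firefly luciferase made from a UUG start codon reports start codon fidelity; reporter light over untreated wells divided by growth signal over untreated wells; some hits fall short of that in this replicate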
CSC inhib: cancer stem cell inhibition; cancer stem cell-like cells viability, luminescence; inhibition, % at 7.5 µM; AID 2717; 300,000 compounds, 1.1% hits;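 active means mean at 75% or more and at least half the replicates too; inconclusive means mean and replicates disagree; tested in HMLE shEcad cells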;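 further: 0% = median of negative and 100% = median of positive control wells; the first replicate is given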
eIF4H FP inh: inhibitors of RNA binding by human eIF4H | 290,000 compounds, 0.94% hits | AID 2012 | inhibition, % at 35 µM | eIF4H fluorescence polarization binding assay | Q15056;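 active means 50% or more with normal probe brightness, or confirmed in later tests; inconclusive means above 50% with abnormal brightness, or retests that disagree; inactive means below 50% or failed in later tests; about a fifth of its hits are not listed in these tables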;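 further: calls also rest on retests at 20 µM and on dose response follow-up; 0% = protein and probe with vehicle and 100% = probe without protein; strong numbers were not always called active; many hits fall short of the cut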
PABP polyA inh: PABP-poly(A) binding inhibition | P11940 | PABP-poly(A) RNA binding, fluorescence polarization | inhibition, % at 35 µM | 290,000 compounds, 1% hits;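 active means 50% or more with normal probe brightness, or confirmed in later tests; inconclusive means above 50% with abnormal brightness, or retests that disagree; inactive means below 50% or failed in later tests; about a fifth of its hits are not listed in these tables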;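 further: calls also rest on retests at 20 µM and on dose response follow-up; controls were probe without protein and protein plus probe with vehicle; some compounds called inactive have numbers as strong as hits; many hits fall short of the cut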
Rce1 inhib: inhibitors of yeast Ras-converting enzyme; Q03530; yeast membranes, quenched prenylated peptide cleavage fluorescence; calls only; 290,000 compounds, 0.27% hits; AID 2563;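 active means fall in fluorescence gain of 50% or more versus controls, with final raw signal at or below 3038400; inconclusive means same 50% fall but final raw signal above 3038400; inactive means fall in fluorescence gain under 50%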;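 further: plate controls were neutral control wells for no effect and wells lacking membranes for full effect; tested at 10 µM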
Target sequence (Q03530 whole entry, looked up): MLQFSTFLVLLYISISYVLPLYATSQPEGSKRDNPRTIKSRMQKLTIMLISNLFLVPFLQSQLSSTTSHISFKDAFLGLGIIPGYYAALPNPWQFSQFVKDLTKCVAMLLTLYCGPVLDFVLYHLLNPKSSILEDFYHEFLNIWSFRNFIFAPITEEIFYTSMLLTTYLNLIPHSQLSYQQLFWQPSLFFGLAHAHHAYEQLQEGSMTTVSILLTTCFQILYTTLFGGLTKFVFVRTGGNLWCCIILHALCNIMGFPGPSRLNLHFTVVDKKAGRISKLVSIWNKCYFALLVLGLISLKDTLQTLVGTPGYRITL
eIF4H FP inh retest: further read-out of eIF4H FP inh, marked with its call; inhibition, %; compound at 20 µM; confirmation average;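 mean of two retest wells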
PABP polyA inh retest: further read-out of PABP polyA inh, marked with its call; inhibition, %; compound at 20 µM; confirmation repeats;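 mean of two retest wells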
MT1-MMP act inh RFP: second read-out of MT1-MMP act inh, no call of its own (marks repeat the call); RFP signal change, %; measured here: RFP expression control read;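 0 = vehicle wells; hits needed this value within 50% of zero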
Active calls of the source: *; i = inactive; ? = inconclusive; · = not tested or not shown.

SMILES	MT1-MMP act inh	MT1-MMP act inh RFP	HIV Env fusion	UUG fidelity	CSC inhib	eIF4H FP inh	PABP polyA inh	Rce1 inhib	others
COc1ccc(CN2CCNC(=O)C2CC(=O)O)cc1OC (stereo unspecified)	-2	1	8	-15	-12	2	17	i
COc1ccc(-c2[nH]ncc2N=Nc2cc(C)cc(C)c2)cc1	-8	-13	-23	·	7	-2	-6	i
CC(=O)N1N=C(c2cccs2)CC1c1cccc([N+](=O)[O-])c1 (stereo unspecified)	3	4	5	·	-1	-2	-6	i
COc1ccccc1-c1c(C)oc2cc(OCC(=O)OCc3ccccc3)ccc2c1=O	8	3	-1	·	-1	-11	1	i
CCO[C@@H]1OC(C(=O)NCc2nc3ccccc3[nH]2)=C[C@H](C)[C@H]1CCCO	4	1	-6	-22	-1	0	-7	i
CCn1c2ccccc2c2cc(NC(=O)c3cccc(OC)c3)ccc21	3	-2	·	-11	-4	-4	4	i
C=CCN(c1ccccc1C(=O)O)S(=O)(=O)/C=C/c1ccccc1	1	3	2	1	-12	-2	-7	i
O=C(CSCc1c(Cl)cccc1Cl)N1CCOCC1	-3	-3	6	·	8	-1	-6	i
Oc1ccc(C=Nc2ccc(N3CCOCC3)cc2)c(O)c1	0	4	32	-19	21	-2	3	i
CC1CCCC(NC(=O)COC(=O)c2cc3ccccc3oc2=O)C1C (stereo unspecified)	6	2	·	3	9	·	·	·
C=CCn1cc(C(=O)OC)c(=O)c2cc(S(=O)(=O)N3CCC(C)CC3)ccc21	1	8	-29	-6	-23	·	·	i
Cn1c2c(c(=O)n(C)c1=O)C(c1ccc(C(F)(F)F)cc1)CC(=O)N2 (stereo unspecified)	2	3	-2	-4	3	·	·	i
CCOC(=O)Cn1nnnc1C(C(C)C)N(Cc1cc2c(C)cc(C)cc2[nH]c1=O)C1CCCC1 (stereo unspecified)	-6	-3	·	-28	·	4	26	i
NC(=O)C1CCN(c2nc(-c3cccc(Cl)c3)cs2)CC1	5	-6	-7	1	-14	·	·	·
Cc1noc(C)c1CSCC(=O)OCC(=O)NC1CCCCC1	0	3	-26	-2	-3	-2	8	i
COc1ccc(C)cc1COC(=O)c1[nH]c(C)c(C(C)=O)c1C	2	-10	5	-8	9	-1	0	i
COc1ccc(S(=O)(=O)N2Cc3ccccc3CC2C(=O)O)cc1 (stereo unspecified)	-4	2	-76	-17	-10	78	36	i	eIF4H FP inh retest=-2;PABP polyA inh retest=4
O=C(O)c1ccccc1C(=O)Nc1ccc(Br)c2cccnc12	6	7	-8	·	-4	19	11	i
Cc1cnc(NC(=O)c2sc(Nc3ccccc3)nc2N)o1	-2	-4	-29	-6	9	8	-6	i
COCc1cc(=O)[nH]c2cc(NC(=O)c3cccc(OC)c3)c(C)cc12	2	2	17	-7	-4	-4	8	i
O=C(C(=O)N1CCOCC1)c1cn(CCOc2ccccc2)c2ccccc12	-1	1	3	19	-8	-12	-12	i
CC(C)(C)C1CCc2c(sc3c2C(=O)NC(c2ccco2)N3)C1 (stereo unspecified)	3	3	·	-12	6	36	-2	i
CC(Sc1ccccc1)C(=O)N1CCN(S(=O)(=O)c2cccc(Br)c2)CC1 (stereo unspecified)	-3	-2	10	9	·	-4	-3	i
CC(=O)NCC(=O)N(C)C(C(=O)Nc1ccc2c(c1)OCCO2)c1ccc(C)cc1 (stereo unspecified)	1	3	12	1	-8	12	5	i
COCCN1C(=O)C(=O)/C(=C(/O)c2ccc(S(=O)(=O)N3CCCCC3)cc2)C1c1ccc(O)c(OC)c1 (stereo unspecified)	1	4	-7	-24	-12	-2	14	i
CCOC(=O)CSC1=C(C#N)C(c2sccc2C)C(C(C)=O)=C(C)N1 (stereo unspecified)	1	4	·	·	3	-9	8	i
Cc1ccccc1CN1CCNC(=O)C1CC(=O)NC1CCCCCCC1 (stereo unspecified)	-5	-3	-3	-15	-18	2	6	i
COc1ccc(NC(=O)CSCC(=O)Nc2sccc2C#N)cc1	7	6	·	13	-13	·	·	i
Cc1oc(C(=O)O)cc1CSCc1cc(C(=O)O)c(C)o1	1	5	·	-17	-6	40	25	i
Cc1c(Cl)cccc1-n1c(SCC(=O)NCc2cccs2)nnc1-c1ccncc1	-3	1	·	-28	-4	-16	-6	i
CN1CCN(/N=C/c2ccc(-c3ccc([N+](=O)[O-])cc3Cl)o2)CC1	-52	0	-13	·	54	-2	-20	i
Cc1c(-c2ccn[nH]2)cc(NC(=O)c2ccc(Cl)cc2)c(=O)n1N	2	-1	8	·	10	-1	?	i
Cc1ccc(S(=O)(=O)N2[C@@H](c3ccccc3F)C(C(=O)O)=CC[C@H]2c2ccc(Cl)cc2)cc1	0	1	-4	-1	10	·	·	·
CN(CC(=O)NCc1ccc(F)cc1)CC(=O)Nc1ccc(Cl)c(C(F)(F)F)c1	5	-6	40	7	4	-2	-6	·
CC(OC(=O)c1ccc(Cl)cc1)C(=O)NCc1ccc2c(c1)OCO2 (stereo unspecified)	0	-2	1	-21	·	·	·	·
C/C(=N\NC(=O)C(O)c1ccccc1)c1ccc(C)s1 (stereo unspecified)	-3	-4	3	·	-10	·	·	i
CC(=O)Oc1ccc2c(=O)oc(-c3ccccc3)nc2c1	2	1	-1	-23	-20	5	4	i
Cc1cccc(NC(=O)Nc2ccccc2)n1	-3	-1	12	-6	·	-4	-2	i
O=C(N/N=C/c1ccoc1)c1cc(Br)ccc1O	1	4	1	-3	-4	32	9	i
CN(C)c1nc(N2CCOCC2)nc(N(c2ccccc2)c2ccccc2)n1	-2	-2	-13	-25	·	-2	1	i
COCCn1c(SCC(=O)NCc2ccco2)nc2cccnc21	-3	1	·	-5	·	13	16	i
Cn1[nH]c(CSc2ccc(Cl)cc2)cc1=O	7	0	-31	·	22	4	-8	i
CCOC(=O)C1CCN(C(=O)c2cc(S(=O)(=O)N3CCc4ccccc43)ccc2OC)CC1	1	-1	·	·	-13	·	·	i
CC1CCCCC1NC(=S)NC(=O)c1sc2ccccc2c1Cl (stereo unspecified)	-1	0	9	·	0	-7	-4	i
CCc1ccc(NC(=O)Cn2c3[n+](c4c(F)c(F)ccc42)CCCCC3)cc1	-4	-2	10	·	-1	13	3	i
CN(C)C(=O)c1cn(-c2ccccc2)nc1-c1cc2ccccc2oc1=O	3	1	7	·	-4	-4	11	i
Cc1cc(C)nc(Nc2nc(C(N)Cc3ccc(C(F)(F)F)cc3)cs2)n1 (stereo unspecified)	-2	2	3	5	·	·	·	·
CC(C)(C)NS(=O)(=O)c1ccc(CCC(=O)O)cc1	0	5	-31	-8	-2	-1	-15	i
CC(C)(C)OC(=O)N(CCc1ccccc1)Cc1cccc(OCc2cccc(NC(=O)c3ccccc3)c2)c1	-7	-15	66*	-6	·	·	·	·
COc1ccc(NC(=O)CCCc2ccc(OC)c(C)c2)cc1	1	0	6	-21	-3	-6	6	i
O=C(CSc1ccccn1)Nc1ccc(Cl)cn1	4	6	-5	·	-11	6	-1	i
O=C(NCCOC(=O)c1ccc(C(=O)OCCNC(=O)c2cccnc2)s1)c1cccnc1	-1	1	-2	-7	3	-12	1	i
COc1cc(OC)c(NC(=O)CC2SC(N)=NC2=O)cc1Cl (stereo unspecified)	-1	0	11	-17	·	·	·	·
CCc1nnc(NC(=O)CSc2nnc(C)c(=O)n2N)s1	-2	0	11	9	2	-11	1	i
Cc1ccnc(NS(=O)(=O)c2ccc(N3C(=O)Nc4ccccc4N3O)cc2)c1	-1	4	-12	-11	-12	-6	4	i
O=C1CCCc2[nH]c(-c3ccccc3)nc21	2	0	-158	·	-1	-9	4	i
Cc1ccc(OCC(=O)Nc2cc(S(=O)(=O)N3CCOCC3)ccc2Cl)c([N+](=O)[O-])n1	2	4	13	2	-8	-4	7	i
Cc1cccc(NC(=O)c2cc3ccccc3o2)c1	6	-1	-147	-4	22	-5	3	i
COc1cc(OC)c(S(=O)(=O)NC(C)C)cc1S(=O)(=O)NC(C)C	0	4	-13	·	1	8	11	i
CCOC(=O)c1ccccc1NC(=O)CSc1nc(N)cc(N)n1	4	1	·	-5	-10	-2	-10	i
Other compounds follow.
SMILES	MT1-MMP act inh	MT1-MMP act inh RFP	HIV Env fusion	UUG fidelity	CSC inhib	eIF4H FP inh	PABP polyA inh	Rce1 inhib	others
O=C(NC1CCN(Cc2ccccc2)CC1)c1ccc2c(c1)OCCCO2	1	-5	-2	·	1	-4	-2	i
O=C(CSc1ncnc2ccccc12)Nc1ccc2c(c1)OCCO2	1	-4	-1	·	-1	-3	-8	i
CCN(CC(=O)Nc1ccc2c(c1)OCCO2)C(=O)/C=C/c1ccc(OC)c(OC)c1	6	2	-8	·	-8	·	·	i
Nc1ccccc1C(=O)NC12CC3CC(CC(C3)C1)C2	1	1	26	-18	-3	-2	10	i
O=C(NC1CC(=O)N(c2cccc(F)c2)C1)C(=O)c1c[nH]c2ccccc12 (stereo unspecified)	-5	-2	-9	-12	4	·	·	i
O=C(NNC(=O)C1CCN(S(=O)(=O)c2ccc(Cl)cc2)CC1)c1ccncc1	·	·	-5	·	26	1	-5	i
CC(C)CCn1c(CN2CC(C)OC(C)C2)nc2c1c(=O)n(C)c(=O)n2C (stereo unspecified)	-5	3	·	8	-6	4	4	i
CCn1c(COc2ccc(Cl)cc2)nnc1SC1CCc2ccccc2C1=O (stereo unspecified)	-3	-5	6	-14	-17	-4	8	i
O=c1c2ccccc2nc(-c2ccco2)n1/N=C/c1ccccc1O	1	-1	·	-26	2	6	-6	·
CN(C)c1ccc(NC(=O)C(=O)NCCOc2ccccc2)cc1	5	3	-2	·	-10	8	34	i
Cc1ccccc1NC(=S)NCC1CCN(C(C)c2ccccc2)C1 (stereo unspecified)	2	8	-2	·	-1	-4	-1	i
CCCCOc1ccc(C(O)C(CN2CCOCC2)c2ccccc2)cc1 (stereo unspecified)	1	-5	-7	·	14	-6	-5	i
COc1ccc(C(=O)Nc2ccc(Br)cn2)cc1S(=O)(=O)N1CCOCC1	-2	-4	0	-10	-4	·	·	·
COC(=O)CC1=NN(c2ccccc2)C(=O)/C1=C\c1ccc(OC)cc1	-4	2	·	·	-1	4	19	i
Cc1ccc(C(=O)Nc2nc3ccc(S(C)(=O)=O)cc3s2)cc1C	-1	-1	6	-11	-8	-2	0	i
O=C(Nc1ccc2c(c1)OCO2)c1cc(C2CCCCN2C(=O)CCCc2ccccc2)on1 (stereo unspecified)	-2	-10	15	-1	·	·	·	·
O=C1C2C3C=CC(C4CC34)C2C(=O)N1c1cccc2ccccc12 (stereo unspecified)	0	-3	13	-16	-4	11	9	i
CCCn1nnnc1SCC(=O)Nc1ccc(F)cc1	-1	-1	·	-20	1	-8	-2	i

Reprinted at random: 4 compounds from above, in no set order.
SMILES	MT1-MMP act inh	MT1-MMP act inh RFP	HIV Env fusion	UUG fidelity	CSC inhib	eIF4H FP inh	PABP polyA inh	Rce1 inhib	others
CC(C)CCn1c(CN2CC(C)OC(C)C2)nc2c1c(=O)n(C)c(=O)n2C (stereo unspecified)	-5	3	·	8	-6	4	4	i
CCCn1nnnc1SCC(=O)Nc1ccc(F)cc1	-1	-1	·	-20	1	-8	-2	i
Cc1ccc(C(=O)Nc2nc3ccc(S(C)(=O)=O)cc3s2)cc1C	-1	-1	6	-11	-8	-2	0	i
O=C(CSc1ncnc2ccccc12)Nc1ccc2c(c1)OCCO2	1	-4	-1	·	-1	-3	-8	i
